From PubChem BioAssay
2A StopGo: lowers the luciferase signal of an FMDV 2A StopGo reporter; human cells with a luciferase reporter of 2A StopGo recoding; control for the full effect not named in the record; 1.2% of 410,000 active; AID 1159524; Potency, µM (series often up to 57.9 µM), inactives show top-dose signal change, negative = less light; active = well fitted falling curve with a large enough effect; inconclusive = small, poorly fitted or top-dose-only effect; inactive = no such curve, though single readings can be large or run the other way; tested in HEK293T cells; note: % is set by controls: 0 for no effect and ±100 for the full control effect; nearly all actives have a fitted effect of over 45% in size; luciferase light after 4 h
SARS PLpro yeast: blocks SARS-CoV papain-like protease in a yeast assay; S. cerevisiae expressing SARS-CoV PLpro, growth rescue; control for the full effect not named in the record; Potency, µM (top dose mostly 32.9 µM), for inactives: at the highest dose activity, positive = growth rescue; 0.19% of 330,000 active; AID 485353; active means well fitted rising curve with a large enough effect; inconclusive means small, poorly fitted or top-dose-only effect; inactive means no such curve, though single readings can be large or run the other way; note: 0% is about no effect; nearly all actives have a fitted effect of over 55% in size; growth read by luminescence after 48 h
RE007 growth inh: less growth of the S. pombe RE007 Vpr strain; S. pombe RE007 Vpr strain, BacTiter-Glo ATP luminescence, 24 h; control for the full effect not named in the record; Potency, µM (series often up to 92.2 µM), without a hit: at the top dose activity change, negative = less growth; 0.21% of 360,000 active; AID 651644; active = well fitted falling curve with a large enough effect; inconclusive = small, poorly fitted or top-dose-only effect; inactive = no such curve, though single readings can be large or run the other way;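 note: % is set by controls: 0 for no effect and ±100 for the full control effect; nearly all actives have a fitted effect of over 50% in size; the assay follows cell death caused by Vpr and the record does not say whether a fall means rescue or toxicity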
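Fission yeast strain RE007, carrying one chromosomally integrated HIV-1 vpr copy, was seeded at OD 0.01 in PMG+AL medium with 23 nL pinned compound. After 24 h at 30 °C and 99% humidity, viability was read by BacTiter-Glo luminescence.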
Numbers without * were called inactive; ? = inconclusive; [ ] = remark or other dose. Potency is the fitted concentration of half-maximal effect. Some of the compounds tested; rates above refer to the full screens.

SMILES | 2A StopGo | SARS PLpro yeast | RE007 growth inh
COc1ccc2c(c1)OC[C@H]1[C@H]2N2C(=O)c3cc(F)ccc3NC(=O)[C@@]2(C)[C@H]1c1ccccc1 | 0.0% | -0.7% | -3.7%
C[C@@H](NC(=O)Cn1cnc2c(NCc3ccccc3)ncnc21)c1cccc2ccccc12 | ? | -0.3% | 0.1%
COC(=O)C1=C(c2ccc(OCc3ccccc3)cc2)C[C@@H]2CC[C@H]1N2C(=O)NCc1ccc(N(C)C)cc1 | -29.9% | -6.7% | -4.9%
NC(=O)c1cc([N+](=O)[O-])ccc1NCc1cccc2ccccc12 | -13.4% | -0.3% | -21.4%
COc1ccc(NC(=O)N(C)C[C@H]2Oc3c(NS(=O)(=O)c4cccs4)cccc3C(=O)N([C@@H](C)CO)C[C@@H]2C)cc1 | 5.4% | -0.6% | 7.2%
O=C(Cc1cccc(NC(=O)C2CCCN(C(=O)C3CCC3)C2)c1)Nc1cccc(C(=O)N2CCCC2)c1 (stereo not drawn) | -20.1% | -3.5% | -5.9%
COC(=O)Cc1ccc(NC(C)=O)cc1 | 4.0% | 0.2% | -8.4%
CCCCN(C(=O)c1ccc(-c2ccc(Cl)cc2)o1)c1c(N)n(CCC)c(=O)[nH]c1=O | -28.8% | 2.0%[6.58 µM] | -11.2%
COc1ccc(NC(=O)COC(=O)Cn2nnc3ccccc32)cc1 | -3.3% | -0.8% | 1.4%
CC1CCCC(NC(=O)COC(=O)c2cc(S(=O)(=O)N3CCOCC3)ccc2F)C1C (stereo not drawn) | -15.4% | -4.4% | 1.7%
COC(=O)C1=C(c2ccc(OC)c(OC)c2)C[C@@H]2CC[C@H]1N2C(=O)N1CCC(C)CC1 | 34.1%[activator] | -20.2% | 0.2%
COc1ccc(-c2c(-c3ccccc3OC)sc3ccccc23)cc1C=O | 1.7% | -1.5% | -1.7%
Nc1ccc(C(=O)N/N=C/c2ccc(N3CCOCC3)s2)cc1 | 8.1% | 2.8% | -2.6%
COC(=O)C1=C(c2cccc(C#N)c2)C[C@@H]2CC[C@H]1N2C(=O)NCCc1ccccc1 | -0.5% | 1.7% | 2.4%
CC(C)NC(=O)N(C)C[C@H]1Oc2c(NC(=O)Nc3ccc4c(c3)OCO4)cccc2C(=O)N([C@H](C)CO)C[C@@H]1C | 25.1% | -5.6% | -6.6%
COc1ccc(CCOC2OC(CO)C(OC(=O)/C=C/c3ccc(O)c(OC)c3)C(O[C@H]3O[C@@H](C)[C@H](O)[C@@H](O)[C@H]3O)C2O)cc1O (stereo partly drawn) | -1.5% | 3.9% | -6.1%
COc1cccc(OC)c1OC(=O)C1CC(=O)N(c2ccc3c(c2)OCCO3)C1 (stereo not drawn) | ? | 3.6% | -12.0%
CN1CC(=O)N2[C@H](c3ccc4c(c3)OCO4)c3[nH]c4ccccc4c3C[C@@H]2C1=O | -19.8% | -1.7% | -7.2%[18.4 µM]
CN1CCC[C@@H]1CCNC(=O)c1cccc2c1C(=O)c1ccc(N3CCCC3)cc1S2(=O)=O | 5.8% | -5.9% | 0.7%
Cc1cc(C(C)(C)C)oc1C(=O)OCC(=O)NC1CCCCC1 | -3.5% | -2.2% | 17.4%
O=C(Nc1ccc(-c2nnn(CC(=O)N3CCN(C(=O)c4ccco4)CC3)n2)cc1)c1ccc(F)cc1 | -15.9% | -1.0% | 10.2%
CCc1ccccc1S(=O)(=O)Cc1ccc(C(=O)NCc2cccs2)o1 | -18.4% | 0.9% | 2.8%
O=C1C(Cl)=C(NCCN2CCCCC2)C(=O)c2ccccc21 | 39.8µM* | 29.6% | -26.3%
O=C(NCCC(=O)N1CCN(S(=O)(=O)c2ccccc2Cl)CC1)Nc1ccccc1 | -15.1% | -2.7% | 9.3%
CC(=O)N/N=C(\C)CCc1ccccc1 | -1.0% | 1.6% | 2.8%
COc1ccc(NC(=O)COC(=O)c2cc(C)oc2C)cc1OC | -15.1% | -13.6% | 15.7%
Cc1onc(-c2c(F)cccc2Cl)c1C(=O)Nc1ccc(Cl)c(S(=O)(=O)N(C)C)c1 | -29.2% | 0.4% | -11.4%
CCC(NC(=O)C(C)NC)C(=O)N1CCCC1C(=O)NC1CCCc2ccccc21 (stereo not drawn) | -8.0% | 1.4% | -15.2%
CCOC(=O)[C@H]1[C@H]2COc3ccc(C)cc3[C@@H]2N2C(=O)c3cc(F)ccc3NC(=O)[C@@]12C | -32.7% | -1.0% | -12.1%
COc1ccc(S(=O)(=O)N2CCCCCC2)cc1C(=O)NCCc1ccc(F)cc1 | 6.8% | 1.3% | -10.9%
C[C@H]1CN=C(N(C)C)N1CCC1CCCC1 | -10.6% | 0.0% | 5.0%
CC(C(=O)NC1CCCCC1)N1CCN(S(=O)(=O)c2cccs2)CC1 (stereo not drawn) | -14.6% | -1.2% | 5.9%
C=CCC(NC(=O)Cc1ccccc1)C(=O)NCCC (stereo not drawn) | 8.3% | 2.0% | -12.8%
CCN(C(=O)Cn1c(=O)n(-c2cc(OC)c(OC)c(OC)c2)c(=O)c2ccccc21)c1cccc(C)c1 | 2.2% | -6.4% | 5.2%
CC(C)[C@H](NC(=O)c1ccccc1Cl)C(=O)OCC(=O)NC(=O)NCc1ccco1 | -23.5% | 1.1% | -4.6%
O=C(OCCOc1ccccc1F)c1cccc(S(=O)(=O)N2CCOCC2)c1 | 1.9% | -5.2% | -1.8%
CC(=O)c1c(C)[nH]c(C(=O)Nc2cc(S(=O)(=O)N3CCCCC3)ccc2C)c1C | -22.9% | -0.7% | 21.1%
CC(=O)Nc1ccc(NC(=O)C2CC(=O)N(c3cccc(Cl)c3)C2)cc1 (stereo not drawn) | -2.1% | 1.4% | -12.8%
CC(CNC(=O)Cn1cnc2c(OCc3ccccc3)ncnc21)c1ccccc1 (stereo not drawn) | -8.6% | 1.4% | -2.1%[18.4 µM]
O=c1oc2ccccc2c2c1ccc1ccccc12 | -0.9% | -43.9% | 3.5%
CN(C)CCCN(C(=O)c1cccc(N2C(=O)CCC2=O)c1)c1nc2cc3c(cc2s1)OCO3 | 6.6% | 4.7% | 2.8%
O=C(CSc1nnnn1-c1ccccc1)c1ccco1 | 78.9%[activator] | -1.1% | -2.6%
Cc1noc(C)c1S(=O)(=O)NCc1ccc(CN(C)C)cc1 | -2.1% | -10.4% | 7.5%
O=C(c1ccc(COc2ccccc2)o1)N1CCN(S(=O)(=O)c2ccccc2Cl)CC1 | -20.7% | -16.2% | -1.9%
O=C(COC(=O)CNC(=O)c1ccc(F)cc1)NC1CCCc2ccccc21 (stereo not drawn) | -14.5% | 2.9% | -8.7%
C[C@H](CO)N1C[C@H](C)[C@@H](CN(C)CC2CC2)Oc2c(NS(=O)(=O)c3ccccc3)cccc2C1=O | 30.2%[activator] | 6.9% | 7.2%
Cc1cc(C(=O)N2CCC(C(N)=O)CC2)c(C)o1 | -17.2% | -1.6% | 12.5%
Cc1ccc(C(=O)N2CC(C)CC(C)C2)cc1S(=O)(=O)N1CCCCC1 (stereo not drawn) | 8.5% | -0.5% | 6.9%
Cc1ccc(S(=O)(=O)Nc2ccc3cn[nH]c3c2)cc1 | 3.8% | 1.1%[6.58 µM] | 4.9%
CCN(C(=O)CSc1nnc(C2CC2)n1-c1ccccc1)C1CCS(=O)(=O)C1 (stereo not drawn) | -8.3% | 2.8% | -7.4%
CCOc1ccc(-n2c(=O)c3c4c(sc3n(CC(=O)NCC3CCCO3)c2=O)CCC4)cc1 (stereo not drawn) | -10.8% | 0.8% | -4.5%
O=C(NCCC(=O)N1CCN(c2ccccn2)CC1)c1ccc([N+](=O)[O-])cc1 | -18.2% | -0.7% | -5.1%
COC(=O)C1=C(c2ccc(F)cc2OCc2ccccc2)C[C@@H]2CC[C@H]1N2C(=O)NCc1ccc([N+](=O)[O-])cc1 | -15.6% | -9.2% | -9.1%
Cc1[nH][nH]c(=O)c1C=NCc1cccs1 | -1.1% | 0.8% | 12.9%
COc1ccc(OCCOc2ccc(N(C)S(=O)(=O)c3ccccc3)cc2)cc1 | ? | 1.9% | 11.0%
Nc1c(C(=O)CSc2nc(-c3ccccc3)cs2)c(=O)[nH]c(=O)n1C1CC1 | -24.3% | 4.7% | 1.2%
O=C1CC(C(=O)N2CCN(c3ccccc3Cl)CC2)CN1Cc1ccccc1 (stereo not drawn) | -2.0% | -6.2% | 9.4%
COc1ccc(CNC(=O)c2cccc(S(=O)(=O)N3CCCCC3)c2)cc1OC | ? | -0.8% | -10.1%
CCC(=O)Oc1ccc(C(=O)Nc2ccccc2C(=O)NCC(C)C)cc1 | 43.6%[activator] | -1.7% | 1.8%
CSc1ccccc1C(=O)OCC(=O)N1CCN(C(C)=O)CC1 | -7.6% | 1.7% | 6.9%
Further entries
SMILES | 2A StopGo | SARS PLpro yeast | RE007 growth inh
CC1(C)CCC/C(=C\c2ccccc2)C1=O | -22.2% | 1.0% | -18.9%
O=C(CCNC(=O)c1ccccc1Cl)Nc1cccc(S(=O)(=O)N2CCCC2)c1 | 7.0% | -2.1% | -0.7%
COC(=O)c1ccc(OCC(=O)NCCC2=CCCCC2)c(OC)c1 | -26.3% | -12.6% | -14.2%
COc1ccc2sc(-c3ccc(S(C)(=O)=O)cc3)c(-c3ccc4c(c3)OCCO4)c2c1 | -14.5% | 8.3% | -7.1%
CCOC(=O)[C@H]1[C@H]2COc3ccc(Cl)cc3[C@@H]2N2C(=O)c3cc(C)ccc3NC(=O)[C@@]12C | -26.4% | -1.6% | -0.6%
COc1cc(C#Cc2ccc3cc(CCCO)oc(=O)c3c2)cc(OC)c1 | 2.0% | 1.2% | 14.1%
COc1cccc(C2=CC(=O)C[C@H](c3ccc(Cl)cc3)C2)c1OC | -9.6% | 2.6% | -11.0%
CC(C)NC(=O)COC(=O)Cn1[nH]c(=O)c2ccccc2c1=O | -17.7% | 2.3% | -11.0%
Cc1nc2cc(F)ccc2n1C1CCN(C(=O)c2c(F)cccc2F)CC1 | ? | -1.1% | -4.6%
CCN(CC)CCNC(=O)CSc1c2c(nc3cc(Cl)ccc13)CCCC2 | ? | -0.1% | -3.9%
CCCN1CCN(c2ccc(S(N)(=O)=O)cc2[N+](=O)[O-])CC1 | -15.7% | 4.6% | 9.9%
CCC(C(=O)OCC(=O)N1CCN(c2ccc(OC)cc2)CC1)c1ccccc1 (stereo not drawn) | -21.3% | -3.3% | -23.3%
CCOc1ccccc1NC(=O)c1cc(-c2ccccn2)nc2ccccc12 | ? | -2.4% | -10.5%
CCCCN1C(=O)c2ccc(C(=O)OCC(=O)N3CCN(c4ccccc4)CC3)cc2C1=O | 0.0% | 2.1% | 5.7%
Cc1ccc(NC(=O)CN(C)C(=O)CSc2nnc(N)s2)cc1 | -20.2% | -2.5% | -5.8%

Record cards, as listed above. Screens in order: 2A StopGo	SARS PLpro yeast	RE007 growth inh
`CCCN1CCN(c2ccc(S(N)(=O)=O)cc2[N+](=O)[O-])CC1` is entered as -15.7%	4.6%	9.9%
`COc1ccc(OCCOc2ccc(N(C)S(=O)(=O)c3ccccc3)cc2)cc1` is entered as ?	1.9%	11.0%

Returning to the listing with the 5 entries that preceded the break.
SMILES | 2A StopGo | SARS PLpro yeast | RE007 growth inh
CCCN1CCN(c2ccc(S(N)(=O)=O)cc2[N+](=O)[O-])CC1 | -15.7% | 4.6% | 9.9%
CCC(C(=O)OCC(=O)N1CCN(c2ccc(OC)cc2)CC1)c1ccccc1 (stereo not drawn) | -21.3% | -3.3% | -23.3%
CCOc1ccccc1NC(=O)c1cc(-c2ccccn2)nc2ccccc12 | ? | -2.4% | -10.5%
CCCCN1C(=O)c2ccc(C(=O)OCC(=O)N3CCN(c4ccccc4)CC3)cc2C1=O | 0.0% | 2.1% | 5.7%
Cc1ccc(NC(=O)CN(C)C(=O)CSc2nnc(N)s2)cc1 | -20.2% | -2.5% | -5.8%
COc1ccc(CCNC(=O)c2ccc(CS(=O)(=O)c3ccc(Br)cc3)o2)cc1OC | 31.6µM* | -0.3% | -1.0%
COc1ccc2c(c1)CCc1c(C(=O)N(C)c3ccccc3)noc1-2 | 6.4% | -6.8% | -8.8%
CC(OC(=O)c1ccc2ccccc2c1)C(=O)N(C)Cc1ccccc1 (stereo not drawn) | -21.1% | 1.0% | -4.8%
COc1ccccc1NC(=O)COc1cccnc1[N+](=O)[O-] | 15.8% | -10.0% | -4.4%
O=C(Nc1cccnc1)c1ccc(-c2ccccc2)cc1 | 39.6%[activator] | -1.5% | -28.9%
CC1(C2CC2)NC(=O)N(CC(=O)Nc2ccc(Cl)c([N+](=O)[O-])c2)C1=O (stereo not drawn) | -10.5% | -4.6% | 6.7%
CCCn1nc(C(=O)Nc2nc(-c3ccccn3)cs2)c2ccccc2c1=O | ? | 0.4% | -0.9%
Cc1cc(C)c(C)c(S(=O)(=O)N2CCN(C(=O)c3cc(S(=O)(=O)N4CCOCC4)ccc3F)CC2)c1C | -27.2% | 0.9% | 13.6%
CCCn1c(N)c(NCCN2CCOCC2)c(=O)n(CC(=O)NCc2ccccc2)c1=O | 6.2% | 0.2% | -17.1%
